Assay outcomes (PubChem BioAssay)
Sa ugtP lethal: growth inhibition of ugtP-null S. aureus, primary screen, RN4220 ugtP deletion, OD600; 16 h; some inactives read as strong as hits; growth inhibition, % (no concentration beside the values); 330,000 compounds, 0.54% hits; AID 1259309, 2017;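 active means z-score under -3 and OD600 up to 0.15 on both plates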;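 further: plate controls were untreated wells for no effect and antibiotic for full effect; wells of about 80 µL received 100 nL stock; the first replicate is given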
PrP UTR inh: inhibition of PrP 5' UTR reporter expression | 340,000 compounds, 0.35% hits | cell-based PrP 5' UTR mRNA reporter, plate reader | inhibition, % (concentration not given with the values);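 active means every replicate at 50% or more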;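 further: 0 = median of the neutral control wells; tested in H4 reporter cells; numbers are from one replicate; inactives centre near -14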
RN4220 kill: growth inhibition of S. aureus RN4220, primary screen, OD600; 330,000 compounds, 0.33% hits; inhibition, % (no concentration beside the values); 16 h; AID 1259311, 2017;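 active means z-score of -3 or lower and OD600 up to 0.18 on both plates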;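 further: plate controls were untreated cells for no effect and reference antibiotic for full effect; stock transfer was 100 nL into about 80 µL; one replicate is shown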
BJeLR viability: MLPCN primary cell-based screen for lethality selective to Ras in HRASV12 cells | BJeLR (HRASV12) viability, CellTiter-Glo ATP luminescence, 48 h; reference of the scale not given here | inhibition, % (concentration not given with the values) | 300,000 compounds, 0.17% hits | AID 1554, 2009;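 active means replicate mean above 50%; inconclusive means above 50% but judged a plate artefact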;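 further: 50 nL library stock added to about 25 µL; numbers are from one replicate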
Mtb hypoxia inh: PubChem AID 1159583; fluorescence inhibition, % (concentration not given with the values); 300,000 compounds, 0.1% hits; M. tuberculosis hypoxia-regulated fluorescent reporter, fluorescence;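 active means 35 to 45% if threefold the growth effect, above 45% if 1.5-fold the growth effect; inactive means the rest, general growth blockers included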;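 further: wells of about 50 µL received 100 nL stock; 0% = vehicle wells and 100% = reference inhibitor wells; whole bacteria with a GFP reporter of the hypoxia response; strong numbers were not always called active; many hits fall short of the cut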
Bead autofluor: counter-screen for toxin protease inhibitors: compound fluorescence. fluorescence intensity (test concentration not listed). compound autofluorescence counterscreen, microsphere flow cytometry; active compounds read high. 360,000 compounds, 3.1% hits;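 active means at least 3 SD above the mean of all compounds, about 16000 in these data; inconclusive means too few beads counted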;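 further: 100 nL of 1 mM stock went into each well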
Mtb hypoxia inh growth: also measured in Mtb hypoxia inh; calls as there; growth inhibition, %; measured here: M. tuberculosis growth (absorbance);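 0% = vehicle and 100% = reference antibiotic; read after six days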
* hit, by the source's call; ? = inconclusive; nt = not tested or not shown.

no. | molecule | Sa ugtP lethal | PrP UTR inh | RN4220 kill | BJeLR viability
1 | Cc1cc(N2CCN(C)CC2)nc2ccc(NC(=O)CCC(=O)N3CCN(c4ccc([N+](=O)[O-])cc4)CC3)cc12 | 8 | -18 | 3.4 | -1
2 | Cc1oc(-c2ccccc2)nc1CS(=O)CC(=O)NC1CCCCCC1 (stereo unspecified) | 1 | 1 | 1.4 | 1
3 | O=C(C[n+]1ccccc1)Nc1ccc(Oc2ccccc2)cc1 | -1 | -16 | 3.1 | 19
4 | O=C(O)c1ccc(NN=C/C=C/c2ccc([N+](=O)[O-])o2)cc1 | 7 | nt | 4.6 | nt
5 | Cc1cc(C(=O)NN=C(CCC(=O)O)c2cccs2)c(C)o1 | 5 | -17 | 3.2 | nt
6 | CCN(CC(=O)Nc1ccc(C(=O)Nc2ccc(OC)cc2)cc1)Cc1nc2ccccc2c(=O)[nH]1 | 5 | 7 | 3.4 | 0
7 | O=C(COC(=O)c1ccccc1Nc1ccccc1F)c1ccccc1 | 53 | -24 | 1.9 | -7
8 | CCOc1ccc(S(=O)(=O)N2CCN(S(=O)(=O)c3ccc(C)c(C)c3)CC2)cc1 | 0 | -10 | -1.3 | 17

no. | Mtb hypoxia inh | Mtb hypoxia inh growth | Bead autofluor
1 | 1 | 8 | 4939
2 | 7 | -7 | 4614
3 | 16 | 7 | 4563
4 | 68* | 41* | nt
5 | 5 | 6 | nt
6 | 8 | 3 | 4548
7 | 5 | 5 | 6278
8 | -2 | -9 | 3296

(continued)
no. | molecule | Sa ugtP lethal | PrP UTR inh | RN4220 kill | BJeLR viability
9 | CCOc1ccc(NC(=O)COc2ccc(C(=O)NC3CCCc4ccccc43)cc2OC)cc1 (stereo unspecified) | 8 | -4 | 5.6 | 4
10 | Cc1noc(C)c1C(=O)Nc1nc2ccc(Cl)cc2s1 | 17 | -33 | 27 | -9
11 | CCCCOC(=O)c1ccc(NC(=O)/C=C/c2cccs2)cc1 | -19 | -27 | -4.0 | -7
12 | COc1ccc(C(=O)C2CCCN(Cc3cnc(N4CCCC4)s3)C2)cc1OC (stereo unspecified) | 3 | -32 | 1.1 | 2
13 | Cc1cc(C)n2nc(SCC(=O)NC3CCCC(C)C3C)nc2n1 (stereo unspecified) | 8 | 4 | 4.3 | -6
14 | CC(=O)C1=C(O)C(=O)N(c2ccc(S(N)(=O)=O)cc2)C1c1ccccc1F (stereo unspecified) | -1 | 12 | 1.8 | 9
15 | Cc1ccccc1C(=O)NC(CC(C)C)C(=O)OCc1cc(=O)n2cc(Br)ccc2n1 (stereo unspecified) | -7 | -82 | 2.7 | 12
16 | CC(=O)Nc1ccc(NC(=O)Cc2ccc(-c3ccccc3)cc2)cc1 | 10 | -27 | 4.8 | -2

no. | Mtb hypoxia inh | Mtb hypoxia inh growth | Bead autofluor
9 | 14 | -5 | 2420
10 | 5 | -8 | 4348
11 | -8 | -6 | 9320
12 | -3 | 10 | 2577
13 | 5 | -7 | 5772
14 | nt | nt | 2662
15 | 19 | 3 | 1934
16 | 3 | -1 | 4288

Other entries:
no. | molecule | Sa ugtP lethal | PrP UTR inh | RN4220 kill | BJeLR viability
17 | Cc1ccc(S(=O)(=O)NC2=NCN(Cc3cccnc3)CN2)cc1 | -1 | -14 | -1.8 | -2
18 | Cc1ccccc1Cn1cnc2c(oc3ccccc32)c1=O | 3 | -11 | -0.2 | 17
19 | O=C(CC1C(=O)N(c2ccc(F)c(F)c2)CC1Cc1ccccc1)Nc1ccccc1 (stereo unspecified) | 13 | nt | -0.5 | nt
20 | Clc1ccccc1CSC1=NCCCN1 | 6 | -16 | 4.1 | -1
21 | Cc1ccc(C(=O)OC/C(O)=C(\C#N)c2nc3ccccc3[nH]2)cc1S(=O)(=O)N1CCOCC1 | 3 | -12 | -1.1 | -8
22 | CCC1CCCCN1C(=S)NC(=O)c1ccc(F)c(S(=O)(=O)N2CCOCC2)c1 (stereo unspecified) | 0 | 59* | 3.3 | 2
23 | Cc1cccc(NS(=O)(=O)c2cccc(C(=O)NCC(c3ccco3)N3CCCCC3)c2)c1 (stereo unspecified) | 6 | -14 | 2.5 | -8
24 | C/C(CCc1ccc2c(c1)OCO2)=N\NC(=O)c1ccccc1 | nt | -9 | nt | 2

no. | Mtb hypoxia inh | Mtb hypoxia inh growth | Bead autofluor
17 | -5 | -5 | ?
18 | 9 | 13 | 4332
19 | 0 | 5 | nt
20 | 7 | 6 | 3688
21 | 1 | 2 | 2723
22 | 6 | 8 | 5963
23 | 7 | -4 | ?
24 | nt | nt | 2635

Remaining list, next part:
no. | molecule | Sa ugtP lethal | PrP UTR inh | RN4220 kill | BJeLR viability
25 | COc1cccc(CNC(=O)Cc2ccc(S(=O)(=O)N3CCOCC3)s2)c1 | 13 | -18 | 4.7 | -2
26 | CN(C)CC(CCCCC(CN(C)C)C(=O)c1ccccc1)C(=O)c1ccccc1 (stereo unspecified) | 0 | -8 | 1.0 | 0
27 | CON(C)C(=O)CCN(Cc1ccccc1)C(=O)OC(C)(C)C | 4 | -3 | 6.1 | nt
28 | Cc1c(C(=O)Nc2ccncc2)oc2c1C(=O)CC(C)(C)C2 | -1 | -37 | 3.9 | 3
29 | O=C(O)CC(c1ccccc1)N1C(=O)c2cccc([N+](=O)[O-])c2C1=O (stereo unspecified) | 7 | -18 | 2.0 | -7
30 | O=C(O)/C=C/c1ccc(S(=O)(=O)NCc2cccnc2)cc1 | -2 | -12 | 4.8 | -4
31 | O=C(NCCc1ccc(Cl)cc1)C1CC(=O)N(C2CCCC2)C1 (stereo unspecified) | 4 | -14 | 2.5 | 1
32 | CC1CCN(Cc2cc(=O)oc3ccc4ccccc4c23)CC1 | -17 | -14 | 5.3 | -4

no. | Mtb hypoxia inh | Mtb hypoxia inh growth | Bead autofluor
25 | 9 | 2 | 6776
26 | 2 | 4 | 4218
27 | 5 | 4 | 4023
28 | -10 | 3 | 19786*
29 | 2 | -5 | nt
30 | 1 | 8 | 4063
31 | 2 | 8 | 5549
32 | 8 | -1 | 4122

Next part
no. | molecule | Sa ugtP lethal | PrP UTR inh | RN4220 kill | BJeLR viability
33 | COCC(=O)Nc1ccc(S(=O)(=O)Nc2nccs2)cc1 | 7 | -5 | 3.9 | 6
34 | COC(=O)c1ccc(CNC(=O)COC(=O)C23CC4CC(CC(C4)C2)C3)cc1 | -11 | -9 | -4.5 | 6
35 | COc1ccc2nc(NC(=O)CSc3n[nH]c(N)n3)sc2c1 | 14 | -30 | 0.4 | 11
36 | O=c1[nH]nc(Sc2ncnc3sccc23)n1CCc1ccccc1 | -6 | 6 | 0.0 | -7
37 | Cc1ccccc1N1CCN(S(=O)(=O)c2nnc(NC(=O)CC(C)C)s2)CC1 | -8 | -11 | 6.4 | -10
38 | CC(C)C(=O)Nc1nnc(SCC(=O)NCC2CCCO2)s1 (stereo unspecified) | 21 | -24 | 5.5 | 1
39 | CCN(CC(=O)NCc1cccs1)C(=O)CCC(=O)c1ccc(F)cc1 | 9 | 2 | 1.0 | -7
40 | N#CC(C#N)=C(Nc1ccc(F)cc1)SCc1cccc(F)c1 | 98* | -4 | 99* | 31

no. | Mtb hypoxia inh | Mtb hypoxia inh growth | Bead autofluor
33 | 13 | 12 | 3925
34 | -5 | -9 | 2209
35 | 7 | 5 | ?
36 | -4 | 5 | 3908
37 | -1 | 6 | 6045
38 | 4 | 3 | 3198
39 | -5 | 3 | 5613
40 | 10 | 9 | 2002

Next entries:
no. | molecule | Sa ugtP lethal | PrP UTR inh | RN4220 kill | BJeLR viability
41 | CC(C)Cn1nc(NC(=O)c2ccco2)c2cc3ccccc3nc21 | -21 | -8 | 2.8 | 0
42 | O=C(Nc1ccc2c(c1)OCO2)c1cnc(Cl)c(Cl)c1 | 3 | -81 | 1.9 | nt
43 | CN1CCc2nc(SCCOc3ccccc3)c(C#N)cc2C1 | -2 | -22 | 12 | 2
44 | Cc1c(Cl)cccc1NC(=O)CC(Cc1ccccc1)C(=O)O (stereo unspecified) | -4 | -9 | 3.0 | -7
45 | CS(=O)(=O)NCC(c1cccnc1)N1CCN(c2ccccc2F)CC1 (stereo unspecified) | 6 | -23 | 1.8 | -12
46 | CCCc1cc(=O)oc2cc(OCC(=O)Nc3cc(C)on3)ccc12 | 0 | -11 | -1.8 | 8
47 | Cc1c(C(=O)N2CCCCC2)nn(-c2ccc(Cl)cc2)c(=O)c1C#N | 10 | -15 | 4.0 | 5
48 | CCN1CCN(CC(O)COc2ccc(C(C)=O)cc2)CC1 (stereo unspecified) | 3 | -13 | -1.2 | 0

no. | Mtb hypoxia inh | Mtb hypoxia inh growth | Bead autofluor
41 | -9 | -3 | 5321
42 | 1 | 4 | 5047
43 | 12 | 11 | 8265
44 | -6 | 4 | 3577
45 | 4 | 13 | 4164
46 | nt | nt | 3152
47 | 4 | 10 | 4286
48 | nt | nt | 5062

Three compounds out of the list, arranged by formula weight, smallest number first:
no. | molecule | Sa ugtP lethal | PrP UTR inh | RN4220 kill | BJeLR viability
48 | CCN1CCN(CC(O)COc2ccc(C(C)=O)cc2)CC1 (stereo unspecified) | 3 | -13 | -1.2 | 0
44 | Cc1c(Cl)cccc1NC(=O)CC(Cc1ccccc1)C(=O)O (stereo unspecified) | -4 | -9 | 3.0 | -7
45 | CS(=O)(=O)NCC(c1cccnc1)N1CCN(c2ccccc2F)CC1 (stereo unspecified) | 6 | -23 | 1.8 | -12

no. | Mtb hypoxia inh | Mtb hypoxia inh growth | Bead autofluor
48 | nt | nt | 5062
44 | -6 | 4 | 3577
45 | 4 | 13 | 4164

Next part
no. | molecule | Sa ugtP lethal | PrP UTR inh | RN4220 kill | BJeLR viability
49 | CCCCn1c(N)c(N(CCOC)C(=O)c2cc(-c3ccco3)nc3ccccc23)c(=O)[nH]c1=O | 4 | -5 | 4.0 | -7
50 | c1ccc(COc2cccc(CNCc3ccccn3)c2)cc1 | 5 | -17 | 6.0 | -3
51 | COc1ccc(-c2cnnc(N/N=C/c3ccc(O)cc3)n2)cc1 | nt | -29 | nt | -2
52 | Cc1ccc(CN2CCN(/N=C/c3ccc(C)s3)CC2)cc1 | nt | -37 | nt | 1
53 | Cc1ccccc1-c1ccccc1N | -2 | -13 | 0.2 | 0
54 | COC(=O)c1ccc(NC(=O)C2CCCN2S(=O)(=O)c2ccc(OC)cc2)cc1 (stereo unspecified) | 9 | -19 | -6.2 | 2
55 | COc1cc(C2c3c(oc4ccccc4c3=O)C(=O)N2c2ccc(C)cn2)ccc1O (stereo unspecified) | 6 | -9 | 4.8 | -2
56 | O=C(NCc1n[nH]c(=S)n1-c1cccc(Cl)c1)c1ccc(S(=O)(=O)N2CCCCC2)cc1 | 14 | -10 | -0.1 | -2

no. | Mtb hypoxia inh | Mtb hypoxia inh growth | Bead autofluor
49 | 4 | 0 | 4174
50 | -7 | -7 | 2356
51 | nt | nt | 3889
52 | nt | nt | 10500
53 | -1 | 2 | 2108
54 | nt | nt | 2211
55 | nt | nt | 4490
56 | -7 | 5 | 3837

Next section:
no. | molecule | Sa ugtP lethal | PrP UTR inh | RN4220 kill | BJeLR viability
57 | COc1cc(CNCCc2ccccc2)cc(Cl)c1OCc1ccccc1 | -19 | -31 | 2.8 | 7
58 | CN(Cc1ccccc1)C(=O)COC(=O)C1CCN(S(=O)(=O)c2cccs2)CC1 | -3 | -10 | -2.5 | 18
59 | CCc1cc2ccccc2nc1SCC(=O)N1CCN(C(=O)c2ccco2)CC1 | 9 | -9 | -4.7 | -4
60 | CC(C)CCN(CCC(C)C)C(CO)(CO)CO | 7 | -21 | 7.2 | -4
61 | C[C@@H](NC(=O)c1nc[nH]c1C(=O)N[C@@H](Cc1ccccc1)C(=O)OCc1ccccc1)c1ccccc1 | nt | -12 | nt | 5
62 | CCOC(=O)c1cc2c(=O)n3cccc(C)c3nc2n(CCOC)c1=NC(C)=O | 6 | -20 | 3.0 | 4
63 | CCc1cc2cc(C)c(C)cc2nc1SCC(=O)NNC(=O)c1ccco1 | -1 | -19 | 4.1 | -4
64 | CCCCN(C(=O)c1ccc2c(c1)OCCO2)c1c(N)n(CCCC)c(=O)[nH]c1=O | 20 | -10 | 4.9 | 4
65 | CC(C(=O)OCC(=O)Nc1cc(S(=O)(=O)N2CCOCC2)ccc1Cl)N1C(=O)C2CCCCC2C1=O (stereo unspecified) | -4 | nt | 2.2 | nt

no. | Mtb hypoxia inh | Mtb hypoxia inh growth | Bead autofluor
57 | 11 | 6 | 5869
58 | -7 | -8 | 4069
59 | nt | nt | 2668
60 | 10 | -1 | 3345
61 | nt | nt | 3499
62 | -1 | 2 | 6284
63 | 8 | 4 | 10112
64 | 2 | -21 | 5853
65 | -2 | 8 | nt
